# Vaccinia Venus – inhibitors of vaccinia virus (Venus reporter); AID 720580; 330,000 compounds, 0.46% hits; Vaccinia virus Venus reporter expression, fluorescence; Potency, µM (titrated, usually from 36.5 µM), for the others: at the top dose activity change, negative = inhibition, most hits filed as inhibitors; active means well fitted inhibition curve with a large enough effect; inconclusive means small, poorly fitted or top-dose-only effect; inactive means no such curve, though single readings can be large or run the other way; tested in A549 cells; note: nearly all actives have a fitted effect of over 30% in size; inactives centre near -10
# Vaccinia mCherry – vaccinia inhibition (mCherry reporter). AID 720579. Potency, µM (top dose mostly 36.5 µM), without a hit: at the top dose activity change, negative = inhibition, most hits filed as inhibitors. Vaccinia virus mCherry reporter infection, fluorescence; about a quarter of the inactives have no number. 310,000 compounds, 0.63% hits; active = well fitted inhibition curve with a large enough effect; inconclusive = small, poorly fitted or top-dose-only effect; inactive = no such curve, though single readings can be large or run the other way; tested in A549 cells; note: nearly all actives have a fitted effect of over 35% in size; inactives centre near -10
# Starred values were filed as active, the others as inactive; i = inactive; ? = inconclusive; nt = not tested or not shown; [ ] = remark or other dose. % is set by controls: 0 for no effect and ±100 for the full control effect; potency is the fitted concentration of half-maximal effect. Compounds as they come; about 0.86% have a hit in one of these screens.
SMILES,Vaccinia Venus,Vaccinia mCherry
Cc1cc(C)c2c(ccc3ccccc32)n1,-11%,-13%
CSc1cccc(Nc2cc(C(=O)NC3CCCCC3)c3ccccc3n2)c1,-4%,-14%
CC(NC(=O)Nc1ccccc1F)C(C)(C)C (stereo not drawn),-2%,-13%
CCN(CC(=O)Nc1ccc(NC(C)=O)cc1)C(=O)c1cccc(S(=O)(=O)N2c3ccccc3CC2C)c1 (stereo not drawn),-2%,-3%
CCOC(=O)c1c(C)[nH]c(CCC(=O)NCCCN2CCN(c3cc(C)ccc3C)CC2)c1C,?,-7%
Cc1ccc(OCC(=O)N2CCN(CCc3ccncc3)CC2)cc1C,-7%,i
OCC1CCCN(C2CCN(Cc3nc(Cc4cccc(C(F)(F)F)c4)no3)CC2)C1 (stereo not drawn),-1%,-23%
COc1ccccc1NC(=O)C1CCN(S(=O)(=O)c2cn(C)cn2)CC1,-3%,-7%
COCCN(C(=O)c1ccc(N2CCCC2=O)cc1)c1c(N)n(CC(C)C)c(=O)[nH]c1=O,-4%,-11%
CC(CCC(=O)O)C1CCC2C3CC[C@H]4CC(O)CC[C@@]4(C)C3C=C[C@]12C (stereo partly drawn),-11%,i
CC(CCc1ccccc1)NC(=O)c1ccco1 (stereo not drawn),-17%,-7%
O=C(c1cnn(-c2cccc(F)c2)c1)c1ccccc1O,-4%,i
Nc1ncc(Br)cc1S(=O)(=O)NCCC(=O)NC1CCCCC1,7%[7.34 µM],3%[7.34 µM]
Cc1cc(Cl)ccc1C(O)c1ncc(-c2ccccc2Cl)[nH]1 (stereo not drawn),-29%,-3%
O=C(N/N=C/C=C/c1ccc([N+](=O)[O-])cc1)C1COc2ccccc2O1 (stereo not drawn),-15%,-1%
CN1C(=O)c2ccccc2C(C(=O)O)C1c1cccc([N+](=O)[O-])c1 (stereo not drawn),-1%,i
CC1=C(C(=O)N2CCOCC2)CC(CC(=O)NCc2cccs2)C(=O)N1CCCN1CCCC1=O (stereo not drawn),-8%,i
O=C1/C(=C/c2cccc(F)c2)SC(=S)N1NS(=O)(=O)c1ccccc1,-6%,i
Cc1ccc(C2=CC(c3ccc(Cl)cc3)n3nc(-c4ccc(C)cc4)nc3N2)cc1 (stereo not drawn),-9%,-16%
COc1ccc(CC(=O)NNC(=O)COc2ccc(Br)cc2C)cc1OC,-11%,i
Cc1nc(-c2ccccc2)sc1-c1ccc(SCC(=O)NCc2ccc(F)cc2)nn1,?,i
O=C(OCC(=O)N1CCCCCC1)c1ccc(F)cc1F,-11%,i
COc1cccc(Nc2sc(C(=O)c3ccc(Cl)cc3)c(N)c2C(=O)NCc2ccc(C)cc2)c1,?,?
Cc1ccc(S(=O)(=O)N2CCCC(C(=O)NCc3ccco3)C2)cc1Cl (stereo not drawn),-12%,i
COc1ccc(Cl)cc1NC(=O)c1nc2nc(C)cc(C(F)F)n2n1,-8%,i
O=C(CCNS(=O)(=O)c1cccs1)N1CCc2ccccc2C1,-7%,nt
CCOC(=O)C1CCCN(C(=O)Cn2ncn3c(cc4sc(CC)cc43)c2=O)C1 (stereo not drawn),-3%,-10%
N#C/C(C(=O)NCCc1ccccc1)=C1/N=C(NC(=O)c2cccs2)c2ccccc21,-22%,-26%
O=C(NC(Cc1ccccc1)C(=O)O)/C(=C/c1ccco1)NC(=O)c1cccc(Br)c1 (stereo not drawn),-8%,i
O=C(Nc1ccc(S(=O)(=O)Nc2ncccn2)cc1)c1cccnc1,-7%,-14%
COc1cccc(/C=N/NC(=O)CCCC(=O)NC2CCCCC2)c1,-12%,-16%
O=C(O)/C=C/C(=O)NCCc1ccccc1,-8%,i
O=C(NC1CCCCC1)C1CC(=O)N(c2ccccc2)C1 (stereo not drawn),-6%,-1%
CC(C)CSc1nc(N)nc2c1ncn2C1OC(CO)C(O)C1O (stereo not drawn),-11%,-14%
COCC(=O)N(C)C[C@@H]1Oc2cc(Br)ccc2S(=O)(=O)N([C@H](C)CO)C[C@H]1C,-3%,-1%
O=c1[nH]c(=S)[nH]c2scc(-c3ccc(Br)cc3)c12,-13%,-18%
Cc1ccc(C(=O)O)cc1NC(=S)NC(=O)C(c1ccccc1)c1ccccc1,-6%,-7%
CCOC(=O)N1CCN(C(=O)c2ccc(-n3c(=S)[nH]c4ccccc4c3=O)cc2)CC1,-12%,-12%
Cc1nn(Cc2ccccc2)c2c1C(c1ccccc1)C(C#N)=C(N)O2 (stereo not drawn),-13%,-13%
COc1cc(-c2cc(C(=O)O)c3c(OC)c(OC)c(OC)cc3n2)ccc1O,-5%,nt
COC(=O)c1cccc(C23CC4(C2)[C@H](CN(Cc2ccc(C(F)(F)F)cc2)[C@@H]4c2ccccc2)C3c2ccc(Cl)nc2)c1 (stereo partly drawn),-12%,-4%
COC(=O)CN1C(=O)CSc2ccc(S(=O)(=O)Nc3cc(C)ccc3C)cc21,-6%,-8%
O=C1OC[C@@H]2CCCN2C(=O)[C@@H](CC(=O)N(CCO)Cc2ccccc2)C/C=C\C[C@@H]1Cc1ccc(F)cc1,-29%,i
O=C(O)c1cc(-c2ccccc2)nn1CC1CC(c2cccc([N+](=O)[O-])c2)=NO1 (stereo not drawn),-10%,i
O=C(CC1C(=O)NCCN1Cc1ccc(-c2ccccc2)cc1)NCC1CCOCC1 (stereo not drawn),-8%,-24%
COc1ccc(C2Nc3ccccc3-c3cc(C)nn32)cc1OC (stereo not drawn),-16%,i
Cc1ccc(C)c(Cn2nnc3c(=O)[nH]c(C4CCCN(C(=O)c5ccco5)C4)nc32)c1 (stereo not drawn),-7%,-12%
O=[N+]([O-])c1nn(-c2ccc(Cl)cc2)n(O)c1=NCc1ccccc1Cl,-11%,?
CC1(C)C2CCC1(C)C(SC(=N)N)C2 (stereo not drawn),-18%,i
CCC(C)C(NS(=O)(=O)c1ccc(C)cc1)C(=O)N1CCOCCOCCOCC1 (stereo not drawn),-1%,i

# In another format: results already given
smiles | Vaccinia Venus | Vaccinia mCherry
Cc1ccc(C)c(Cn2nnc3c(=O)[nH]c(C4CCCN(C(=O)c5ccco5)C4)nc32)c1 (stereo not drawn) | -7% | -12%
O=[N+]([O-])c1nn(-c2ccc(Cl)cc2)n(O)c1=NCc1ccccc1Cl | -11% | ?
CC1(C)C2CCC1(C)C(SC(=N)N)C2 (stereo not drawn) | -18% | i

# The list continues:
SMILES,Vaccinia Venus,Vaccinia mCherry
COc1ccc(CNC(=O)c2cccn2-c2nnc(N3CCCCC3)s2)c(OC)c1,0%,-14%
CCN(C(=O)C(C)OC(=O)CCCNC(=O)c1ccc(Cl)cc1)c1ccccc1 (stereo not drawn),-16%,-30%
CCCCN1CC(C(=O)NCc2ccc(C)cc2)CC1=O (stereo not drawn),-1%,-10%
CSCC[C@H](NC(=O)OC(C)(C)C)c1nnc(SCC(=O)N(C)C)o1,-6%,nt
COC(=O)CN(c1ccc(C)cc1)S(=O)(=O)c1ccc(F)cc1,-16%,-3%
CC(C)(C)NC(=O)CCN(/N=C/c1ccccc1)C1=NS(=O)(=O)c2ccccc21,1%,-4%
CCN(CC(=O)Nc1c(F)cccc1F)C(=O)C1CCN(S(=O)(=O)c2ccc(F)cc2)CC1,-10%,-15%
CC(=O)NCCc1ccc(C(=O)COC(=O)c2ccc(C)s2)cc1,-17%,-1%
O=C(CNS(=O)(=O)c1ccc(Br)s1)NCCc1ccc(Cl)cc1,-8%,-4%
CCOC(=O)C1CCC(CN(Cc2ccc(OC)cc2)S(=O)(=O)c2ccc(F)c(C(=O)Nc3cc(Cl)ccc3OC)c2)CC1 (stereo not drawn),0%,-13%

# Profiles from above:
# CN1C(=O)c2ccccc2C(C(=O)O)C1c1cccc([N+](=O)[O-])c1 (stereo not drawn) across the screens: Vaccinia Venus = -1%; Vaccinia mCherry = i
# CCCCN1CC(C(=O)NCc2ccc(C)cc2)CC1=O (stereo not drawn) across the screens: Vaccinia Venus = -1%; Vaccinia mCherry = -10%
# O=C(N/N=C/C=C/c1ccc([N+](=O)[O-])cc1)C1COc2ccccc2O1 (stereo not drawn) across the screens: Vaccinia Venus = -15%; Vaccinia mCherry = -1%

# Random excerpt: 2 entries already listed.
SMILES,Vaccinia Venus,Vaccinia mCherry
O=C1/C(=C/c2cccc(F)c2)SC(=S)N1NS(=O)(=O)c1ccccc1,-6%,i
CCN(CC(=O)Nc1c(F)cccc1F)C(=O)C1CCN(S(=O)(=O)c2ccc(F)cc2)CC1,-10%,-15%

# Carrying on:
SMILES,Vaccinia Venus,Vaccinia mCherry
O=C(O)C1=C[C@H](c2ccc(Br)cc2)C[C@H](OCCCCO)O1,-12%,-22%
Brc1ccc2nc(-c3ccccc3)c(Cc3ccccc3)n2c1,0%,3%
Cc1ccsc1CN(C(=O)c1ccccc1)C1CCS(=O)(=O)C1 (stereo not drawn),-13%,-10%
COc1ccc(CNC(=O)c2cc3c(-c4ccccc4F)nn(C)c3s2)c(OC)c1,?,?
Cc1cccc(C(=O)OCC(=O)Nc2ccc(F)cc2)c1,-11%,-7%
Cc1ccc(NC(=O)Nc2nnc(SCC(=O)N3CCCCC3)s2)cc1,-9%[7.34 µM],-2%[7.34 µM]
CCCN1CCc2c(sc(NC(=O)c3ccc(S(=O)(=O)N(C)c4ccccc4)cc3)c2C(=O)NC)C1,-15%,?
O=C(COC(=O)/C=C/c1ccc(C(F)(F)F)cc1)NC1CCS(=O)(=O)C1 (stereo not drawn),-19%,i
O=C(Nc1c(-c2ccccc2)nc2ccccn12)c1cccc(F)c1,-4%,-19%
COc1ccc(NC(=O)N2CCCC(CCC(=O)N(C)CCc3ccccn3)C2)cc1 (stereo not drawn),-7%,-18%

# Copied from the list.
# `O=C(Nc1c(-c2ccccc2)nc2ccccn12)c1cccc(F)c1` | Vaccinia mCherry = -19%
# `CCCN1CCc2c(sc(NC(=O)c3ccc(S(=O)(=O)N(C)c4ccccc4)cc3)c2C(=O)NC)C1` | Vaccinia Venus = -15%

# The listing continues.
SMILES,Vaccinia Venus,Vaccinia mCherry
Cc1nc2ncnn2c(C)c1Cc1ccccc1Cl,-9%,-14%
COCCNc1nc(N)c([N+](=O)[O-])c(NCC2CCCO2)n1 (stereo not drawn),-17%,-24%
CC(C)CN1C(=O)CSCC1(C)C(=O)Nc1ccc2c(c1)OCCO2 (stereo not drawn),-11%,-11%
CCCCN(CC)C(=O)Cc1ccc(Br)cc1,-24%,i
CS(=O)(=O)c1cccc(-c2ccc3nncn3c2)c1,-6%,39%[activator]
COc1ccc2cc(CCNC(=O)c3ccc(S(=O)(=O)N4CCCC4)cc3)c(=O)[nH]c2c1,2%,i
CCCCC1(C)OC(=O)C(=Cc2ccc(N(CC)CC)cc2)C(=O)O1 (stereo not drawn),-22%,nt
Cc1nn(-c2nnc(C)c(=O)[nH]2)c(C)c1SCC(=O)Nc1ccc(F)cc1,-11%,-1%[1.46 µM]
Cc1ncc(CO)c(CNc2ccc(Oc3ccccc3)cc2)c1O,-9%,?
COc1ccccc1NC(=O)NNC(=O)c1ccncc1,5%,i
CCN(CC)S(=O)(=O)c1ccc(O)c(C(=O)OCC(=O)NC2CCCC2)c1,-6%,-10%
CCN(Cc1ccccc1)C(=O)C1CCN(Cc2sccc2C)CC1,2%,-15%
C/C(=N\N=C(N)N)c1cccc(Cl)c1,-11%,-3%
COc1ccc(N2C[C@H](C)[C@@H](CC(=O)Nc3ccc(Br)cc3)C2=O)cc1,-14%,i
O=C(Nc1ccc2[nH]ncc2c1)c1ccccc1Br,-20%,?
CCOC(=O)c1csc(NC(=O)c2ccc(N3C(=O)CCC3=O)cc2)n1,-7%,i
O=C(Nn1cnnc1)c1cc2c(s1)CCCC2,-12%,-11%
O=C(O)c1cccc(Nc2nc(Nc3ccccc3)nc(N3CCCC3)n2)c1,-2%,-7%
COc1ccc(C(=O)N2CCCC2(C)C(=O)O)cc1C(F)(F)F (stereo not drawn),-12%,i
COc1ccc(CC(NC(C)=O)C(=O)NC2CCN(c3nnnn3-c3ccccc3)CC2)cc1 (stereo not drawn),-23%,-26%
CC(C)Cn1cc(C(=O)N2CCC(C)CC2)c2c3ccccc3n(C)c2c1=O,-12%,-4%
COc1ccc(NC(=O)Cn2c([N+](=O)[O-])cnc2C)cc1Cl,-21%,-8%
COC(=O)C1=NN(C(=O)c2ccccc2)C(O)(c2ccc([N+](=O)[O-])cc2)C1 (stereo not drawn),-11%,-1%
NNc1nncc2ccccc12,-15%,-2%
COCC(=O)N(CCc1ccc(OC)cc1)Cc1nc2ccccc2c(=O)[nH]1,-11%,-7%
Cn1c(=O)n(C)c2cc(NS(=O)(=O)c3ccc(Br)s3)ccc21,-3%,i
COc1ccc(C(O)c2ncc(-c3cccc(C(F)(F)F)c3)[nH]2)cc1F (stereo not drawn),-30%,-15%
Cc1nc(NC(=O)COC(=O)C2CC3CCCC(C2)C3=O)c(Cl)cc1Cl (stereo not drawn),-5%,-12%
CCOC(=O)CN1C(=O)C(O)(C2CCc3ccccc3C2=O)c2ccccc21 (stereo not drawn),8%,nt
COc1cccc(C(=O)OCC(=O)c2ccc(Br)s2)c1,-12%,-13%
Cc1cc(C(=O)Nc2ccc(N3CCCC3)c(Cl)c2)ccc1[N+](=O)[O-],-18%,-21%
CC(C)CCOc1ccc(Cn2c(=O)sc3ccccc32)cc1,-6%,-1%
COc1ccc(N(CC(=O)Nc2c(C)n(C)n(-c3ccccc3)c2=O)S(=O)(=O)c2ccc(F)cc2)cc1,-21%,-15%
O=C1CC(C(=O)N2CCCc3ccccc32)CN1c1ccc(Cl)cc1 (stereo not drawn),10%,9%
CC(C)(C)c1cc(OC(=O)c2ccccc2F)ccc1O,-22%,-22%
